Screening data from PubChem.
VDR inhibitor – vitamin D3 receptor (human) inhibition; Potency, µM, inactives show max response, negative = inhibition, usual class: inhibitors; VDR-SRC2-3 peptide fluorescence polarization, 2 h; hit rate 0.93% among 400,000; P11473; active = well fitted inhibition curve with a large enough effect; also: series mostly up to about 120 µM
Target sequence (P11473 whole entry, looked up): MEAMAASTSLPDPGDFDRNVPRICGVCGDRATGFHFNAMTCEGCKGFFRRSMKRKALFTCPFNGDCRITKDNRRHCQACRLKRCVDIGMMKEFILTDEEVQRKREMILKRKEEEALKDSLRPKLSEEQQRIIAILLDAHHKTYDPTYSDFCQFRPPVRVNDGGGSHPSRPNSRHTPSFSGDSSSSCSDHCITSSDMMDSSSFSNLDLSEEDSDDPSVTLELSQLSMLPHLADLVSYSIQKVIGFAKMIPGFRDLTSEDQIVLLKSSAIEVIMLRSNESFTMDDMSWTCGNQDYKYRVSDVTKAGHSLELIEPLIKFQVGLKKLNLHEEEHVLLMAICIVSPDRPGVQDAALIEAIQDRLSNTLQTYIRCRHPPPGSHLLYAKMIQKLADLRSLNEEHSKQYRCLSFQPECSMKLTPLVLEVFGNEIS
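Fluorescence polarization assay measuring small-molecule disruption of VDR binding to the coregulator peptide SRC2-3. Compounds were pin-transferred (23 nl) into the reagent mix and incubated 2 h at room temperature before reading.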
Numbers without * were called inactive; & = joins results of further samples; [ ] = dose if it differs, or a comment. % is scaled to controls: 0 for no effect and ±100 for the full control effect; potency is read from the fitted curve at half-maximal effect. Only part of the results is shown (hit frequency here may not be typical).

Screening O=C(O)c1ccc(CN2C(=O)CSC2=S)cc1 returned VDR inhibitor 24%.
Screening Cc1ccc(N2C(=O)C3NN=C(C(=O)OCc4ccccc4)C3C2=O)c(C)c1 (centres undefined) returned VDR inhibitor 0%.
CCOC(=O)C1=C(C)NC(=O)NC1c1ccc2c(c1)OCCO2 (centres undefined) was read as VDR inhibitor 14%.
For COc1cc(C#Cc2ccc3cc(CCCO)oc(=O)c3c2)cc(OC)c1 the results were VDR inhibitor -1%.
For CCC(C)Nc1nc(SC(C(C)=O)C(C)=O)nc(N(C)C)n1 (centres undefined) the results were VDR inhibitor 5%.
For Cc1ccc(CCNC(=O)c2cc(-c3ccccc3)n[nH]2)cc1 the results were VDR inhibitor 2%.
`Cn1cc(S(=O)(=O)CC(=O)Nc2ccc3c(c2)OCCO3)c2ccccc21` gave VDR inhibitor -5%.
Screening COC(=O)c1ccc(O)c(Sc2cc(C(=O)OC)ccc2O)c1 returned VDR inhibitor -12%.
COc1ccc(Cl)cc1NC(=O)CSc1cn(CC(=O)N2CCCCC2)c2ccccc12 was read as VDR inhibitor -12%.
`Cc1cccc(C(C)C)c1NC(=O)c1ccc2c(c1)CCN2S(C)(=O)=O` gave VDR inhibitor -2%.
For CCOC(=O)[C@H]1[C@H]2COc3ccc(Cl)cc3[C@@H]2N2C(=O)c3cc(C)ccc3NC(=O)[C@@]12C the results were VDR inhibitor -13%.
`COC(=O)C1(C)NC(c2ccc(O)cc2)C2C(=O)N(c3ccc(C)cc3)C(=O)C21` (centres undefined) gave VDR inhibitor -16%.
`CC(C)Cc1ccc(CN2CCCC(NC(=O)CCCN3CCCC3=O)C2)cc1` (centres undefined) gave VDR inhibitor -2%.
For Cc1cc(C(=O)NNC(=S)NC(C)c2ccccc2)cs1 (centres undefined) the results were VDR inhibitor 4%.
Cc1ccc(C(=O)C2CCN(S(=O)(=O)c3ccc(C(=O)O)cc3)CC2)cc1 was read as VDR inhibitor 4%.
C/C(=N\NC(=O)c1nnn(-c2nonc2N)c1CSc1ccc(C)cc1)c1ccco1 was read as VDR inhibitor -7%.
For CN(CCNC(=O)C1(O)c2ccccc2NC(=O)N1c1ccccc1)Cc1ccccc1 (centres undefined) the results were VDR inhibitor -7%.
For Cc1cc(-c2csc(NCc3ccccc3)n2)c(C)n1C the results were VDR inhibitor 50%[activator].
`Cc1cccc(Nc2nc(-c3ccccc3)nc3ccccc23)c1` gave VDR inhibitor 4%.
COC(=O)c1c(-c2ccccc2)csc1NC(=O)c1ccco1 was read as VDR inhibitor 0%.

Two records drawn at random from the list so far, as already listed:
`CC(C)Cc1ccc(CN2CCCC(NC(=O)CCCN3CCCC3=O)C2)cc1` (centres undefined) gave VDR inhibitor -2%.
COC(=O)c1c(-c2ccccc2)csc1NC(=O)c1ccco1 was read as VDR inhibitor 0%.

Other compounds
Screening c1coc(CNc2ncnc3c2oc2ccccc23)c1 returned VDR inhibitor 2%.
Screening O=S(=O)(NCc1ccc2c(c1)OCO2)c1ccccc1F returned VDR inhibitor -9%.
For O=C(CSc1nnc(CNC(=O)c2ccccc2)o1)NCc1ccccc1 the results were VDR inhibitor 11%.
COC(=O)c1ccc(OCC(=O)NCCC2=CCCCC2)c(OC)c1 was read as VDR inhibitor -9%.
`COc1ccc(C2(c3ccc(OC)cc3)NC(=O)N(CC(=O)Nc3ccc(OC)c(OC)c3)C2=O)cc1` gave VDR inhibitor 2%.
Screening Cc1cc(C)cc(C(=O)N2CC(C)OC(C)C2)c1 (centres undefined) returned VDR inhibitor 13%.
Screening COc1ccc2sc(-c3ccc(S(C)(=O)=O)cc3)c(-c3ccc4c(c3)OCCO4)c2c1 returned VDR inhibitor -15%.
`O=c1[nH]c(C2CCN(S(=O)(=O)c3ccc(S(=O)(=O)NC4CC4)cc3)CC2)nc2c1nnn2Cc1ccccc1` gave VDR inhibitor 4%.
For CN(C)S(=O)(=O)c1cccc(NC(=O)CCNC(=O)c2ccccc2Cl)c1 the results were VDR inhibitor 11%.
For Cc1onc(-c2ccccc2)c1CNC(=O)Nc1cccc(Cl)c1 the results were VDR inhibitor 5%.
COC(=O)c1cc(Cl)c(NC(=O)/C=C/c2ccc(Cl)cc2Cl)cc1OC was read as VDR inhibitor -5%&15%.
`COc1ccc(NC(=O)c2oc3ccc(S(=O)(=O)N4CCOCC4)cc3c2C)c(OC)c1` gave VDR inhibitor 1%&-8%.
For CC(C)NC(=O)C1(N2C(=O)c3ccccc3C2=O)CCCC1 the results were VDR inhibitor 8%.
Screening CCc1ccc(CNC(=O)C2CCN(c3nn4cc(-c5ccc(F)cc5)nc4s3)CC2)cc1 returned VDR inhibitor 8%.
CCOC(=O)c1ccc(NC(=O)CC2C(=O)OCCN2CC)cc1 (centres undefined) was read as VDR inhibitor -26%&-10%.
CC(=O)c1cccc(N2C(=O)CN(S(C)(=O)=O)CC2(C)C(=O)NC2CCCC2)c1 (centres undefined) was read as VDR inhibitor 18%.
For Cc1cc2c(cc1S(=O)(=O)C(C)CC(=O)NCc1ccco1)OCC(=O)N2 (centres undefined) the results were VDR inhibitor -8%.
Screening CCOC(=O)c1nnn(-c2nn3nnnc3c3ccccc23)c1C returned VDR inhibitor -7%.
Screening CCOc1ccc(Nc2nc3c(C)cccc3cc2C#N)cc1 returned VDR inhibitor -7%.
`COCCn1c(SCC(=O)Nc2ccc(C)cc2)nc2c(oc3ccccc32)c1=O` gave VDR inhibitor 4%.
CCCn1c(SCc2ccon2)nc2ccccc2c1=O was read as VDR inhibitor -6%.
COC(=O)CCN(C(=O)c1ccc(N2CCCC2)c([N+](=O)[O-])c1)c1ccccn1 was read as VDR inhibitor -15%.
`O=C(CCNC(=O)c1ccccc1Cl)Nc1cccc(S(=O)(=O)N2CCCC2)c1` gave VDR inhibitor 21%.
`CCCCCSc1nc2sc3c(c2c(=O)n1-c1ccccc1)CCN(C(C)=O)C3` gave VDR inhibitor -19%.
O=C(CC1C(=O)NCCN1Cc1ccc(-c2ccccc2)cc1)NCCc1ccccn1 (centres undefined) was read as VDR inhibitor -5%.
Screening CC(=O)c1ccc2c3c(cccc13)CC2 returned VDR inhibitor -14%.
Cc1ccnc(N2CCC(C(=O)NNC(=O)COc3cccc4ccccc34)CC2)n1 was read as VDR inhibitor -8%.
For Cc1ccc(S(N)(=O)=O)c(C)c1N1CCCC1=O the results were VDR inhibitor -10%.
O=[N+]([O-])c1ccc(CSc2ccccn2)cc1 was read as VDR inhibitor -6%.
`CN1CC(=O)N2Cc3[nH]c4ccccc4c3C[C@H]2C1=O` gave VDR inhibitor 7%.
`C=C(C)Cn1cnc2c(oc3nc4c(cc32)CCCC4)c1=O` gave VDR inhibitor 8%.
For CC(C)c1cc(CN2CCN(C3CCCC3)C(CCO)C2)[nH]n1 (centres undefined) the results were VDR inhibitor -12%.
Cc1ccc(C2C(C(=O)c3sc(C)nc3C)=C(O)C(=O)N2CCN(C)C)o1 (centres undefined) was read as VDR inhibitor 7%.
Screening COc1ccc(CN2C(=O)N(c3ccc(F)cc3)C(=O)C2CC(=O)Nc2cc(OC)cc(OC)c2)cc1 (centres undefined) returned VDR inhibitor -1%.
For COc1ccc(S(=O)(=O)N2CCC(Cc3ccccc3)CC2)cc1NC(C)=O the results were VDR inhibitor -19%.
Screening O=C(Cc1ccccc1)Nc1nonc1NC(=O)c1ccccc1 returned VDR inhibitor -4%.
`NS(=O)(=O)c1ccc(CNC(=O)c2ccccc2SCC(=O)N2CCCC2)cc1` gave VDR inhibitor -28%.
For NS(=O)(=O)c1ccc(CCNC(=O)Cc2cccs2)cc1 the results were VDR inhibitor -4%.
For COc1cccc(-c2nn(C)c3sc(C(=O)NCCc4ccc(Cl)cc4)cc23)c1 the results were VDR inhibitor 4%.
For CC(=O)Nc1ccc(S(=O)(=O)N2CCCc3ccccc32)cc1 the results were VDR inhibitor 6%.
For Cc1cc(C)n(C(=O)c2cc3sccc3[nH]2)n1 the results were VDR inhibitor 0%.
For Cc1cccc(NC(=O)Cn2cnc(S(=O)(=O)N3CCCC3)c2)c1C the results were VDR inhibitor -18%&2%.
`Brc1ccc(CNc2nc3ccccc3n2CCN2CCCCC2)cc1` gave VDR inhibitor -7%.
CCOC(=O)c1c(C)sc(-c2c(-c3cc(C)ccc3C)[nH]c3c2c(=O)n(C)c(=O)n3C)c1O was read as VDR inhibitor 6%.
For COc1ccccc1NC(=S)N1CCC(c2nc3ccccc3o2)CC1 the results were VDR inhibitor -7%.
COc1cc2cc3c(N)c(C(=O)NCc4ccco4)sc3nc2cc1OC was read as VDR inhibitor -1%.
Screening O=C(CN(CCc1ccccc1)C(=O)c1csnn1)NC1CCCC1 returned VDR inhibitor -3%.
Screening O=C(N/N=C/C=C/c1ccccc1)c1cc2c(ccc3ccccc32)o1 returned VDR inhibitor 1%.
COCC(C)NS(=O)(=O)c1ccc(C)cc1 (centres undefined) was read as VDR inhibitor 3%.
`O=C(N/N=C/C=C\c1cccc([N+](=O)[O-])c1)c1cccnc1` gave VDR inhibitor -18%.
CCN(CC)CCOC(=O)c1c(C)oc2ccc(OC)cc12 was read as VDR inhibitor 12%.
Screening O=C(CCC(=O)Nc1ccccc1Cl)NNC(=O)C1CCCCC1 returned VDR inhibitor -8%.
`COc1ccc(-c2ccc(=O)n(Cc3cc(=O)n4ccccc4n3)n2)cc1` gave VDR inhibitor -24%.
Cc1c(/C=N/n2cnnc2)c2ccccc2n1CCOc1ccccc1 was read as VDR inhibitor 3%.
For COc1ccc(C(=O)NC(=S)NNC(=O)c2cnccn2)cc1OC the results were VDR inhibitor -5%.
Cc1ccc(/C=N/NC(=O)c2n[nH]c3c2CCCC3)cc1 was read as VDR inhibitor 11%.
CCOc1ccccc1NS(=O)(=O)c1cccs1 was read as VDR inhibitor -6%.
Screening Cc1ccc(-c2noc(COc3ccccc3C)n2)cc1 returned VDR inhibitor 3%.
Screening COc1cc(C(=O)NCC(=O)N/N=C/c2ccccn2)cc(OC)c1OC returned VDR inhibitor 1%.
CC1(C)CCC/C(=C\c2ccccc2)C1=O was read as VDR inhibitor -3%.
For COc1ccc(CCn2c(C(C)C)nc3oc4ccccc4c(=O)c3c2=O)cc1 the results were VDR inhibitor -6%.
CC(C)CCNC(=O)CSc1nc2ccccc2s1 was read as VDR inhibitor -2%.
Screening CC(C)NC(=S)Nc1ccc2nc3n(c(=O)c2c1)CCCCC3 returned VDR inhibitor -10%.
Cc1ccc(NC(=O)C2CC(=O)n3c(nc4ccccc43)N2)cc1 (centres undefined) was read as VDR inhibitor -12%.
For CCc1c(C)nc2ncnn2c1Nc1ccccc1C the results were VDR inhibitor -20%.
Cc1cccc(-n2c(C)nc3cc(C(=O)NCC4CCCO4)ccc32)c1 (centres undefined) was read as VDR inhibitor -6%.
Screening Cc1ccc(S(=O)(=O)N(C)C)cc1NC(=O)COC(=O)C1(c2ccccc2)CC1 returned VDR inhibitor 2%.
FC(F)(F)c1ccc(-c2cccc3c2C2CC3CCN2)cc1 (centres undefined) was read as VDR inhibitor -5%.
For Cc1cc(/C=C2/NC(=O)N(c3ccccc3)C2=O)c(C)n1-c1cccnc1 the results were VDR inhibitor 4%.
Screening CCOC(=O)c1cc(-c2ccc(F)cc2)n(CCC(=O)Nc2nc3cc(C)c(C)cc3s2)c1C returned VDR inhibitor 6%.
`C=CCNC(=S)NNC(=O)c1cccn(Cc2ccc(Cl)cc2)c1=O` gave VDR inhibitor -7%.
`COc1ccccc1C(=O)NNC(=O)c1cccc(C)c1` gave VDR inhibitor 71µM*.
`COc1ccc(NS(=O)(=O)c2ccc(NC(=S)NC(=O)c3ccc(F)cc3)cc2)nn1` gave VDR inhibitor 3%.
O=C(COc1ccc(Br)cc1)Nc1ccc(S(=O)(=O)Nc2ccccn2)cc1 was read as VDR inhibitor 25%.
Cc1cccc(-n2cc(CN3CCN(C(=O)c4ncn[nH]4)CC3)c(-c3cccc(F)c3)n2)c1 was read as VDR inhibitor -3%.
`Cc1ccc(S(=O)(=O)N2CCCCC2)cc1NS(=O)(=O)c1ccc(Cl)c(C(=O)O)c1` gave VDR inhibitor -4%.
`CSc1ccccc1C(=O)OCC(=O)N1CCN(C(C)=O)CC1` gave VDR inhibitor 6%.
Cc1cc(C(=O)Nc2cccc3ccccc23)c(C)o1 was read as VDR inhibitor -21%.
Screening Cc1ccc2cc3c(nc2c1)N(c1ccccc1)CC3 returned VDR inhibitor -11%.
For CCOC(=O)CSc1nc2c(c(=O)n1-c1ccc(OC)cc1)SCC2 the results were VDR inhibitor -18%.

By substructure: the compounds so far with a furan ring, fused or not.
C/C(=N\NC(=O)c1nnn(-c2nonc2N)c1CSc1ccc(C)cc1)c1ccco1 was read as VDR inhibitor -7%.
COC(=O)c1c(-c2ccccc2)csc1NC(=O)c1ccco1 was read as VDR inhibitor 0%.
Screening c1coc(CNc2ncnc3c2oc2ccccc23)c1 returned VDR inhibitor 2%.
`COc1ccc(NC(=O)c2oc3ccc(S(=O)(=O)N4CCOCC4)cc3c2C)c(OC)c1` gave VDR inhibitor 1%&-8%.
For Cc1cc2c(cc1S(=O)(=O)C(C)CC(=O)NCc1ccco1)OCC(=O)N2 (centres undefined) the results were VDR inhibitor -8%.
`COCCn1c(SCC(=O)Nc2ccc(C)cc2)nc2c(oc3ccccc32)c1=O` gave VDR inhibitor 4%.
`C=C(C)Cn1cnc2c(oc3nc4c(cc32)CCCC4)c1=O` gave VDR inhibitor 8%.
Cc1ccc(C2C(C(=O)c3sc(C)nc3C)=C(O)C(=O)N2CCN(C)C)o1 (centres undefined) was read as VDR inhibitor 7%.
COc1cc2cc3c(N)c(C(=O)NCc4ccco4)sc3nc2cc1OC was read as VDR inhibitor -1%.
Screening O=C(N/N=C/C=C/c1ccccc1)c1cc2c(ccc3ccccc32)o1 returned VDR inhibitor 1%.
CCN(CC)CCOC(=O)c1c(C)oc2ccc(OC)cc12 was read as VDR inhibitor 12%.
Cc1cc(C(=O)Nc2cccc3ccccc23)c(C)o1 was read as VDR inhibitor -21%.
